Bioassay records: PubChem, ICCB-Longwood Screening Facility, Harvard Medical School
GIV-Gai inh = inhibitors of GIV peptide binding to Galpha-i3, primary screen, biochemical, fluorescence polarization, FITC-GIV GBA peptide, rat Galphai3; Guanine nucleotide-binding protein G(i) subunit alpha-3 (Rattus norvegicus), P08753; AID 1224905, 2016; 90 min; hits give low values; scaled: aluminum fluoride 0%, vehicle 100%; actives 0.42% (n = 210,000); percent of control (FP), % (concentration not given with the values);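 active = replicate mean at 85% of control or lower, very high polarization wells dropped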;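 note: wells of about 15 µL received 100 nL stock; the first replicate is given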
Target sequence (P08753 whole entry, looked up): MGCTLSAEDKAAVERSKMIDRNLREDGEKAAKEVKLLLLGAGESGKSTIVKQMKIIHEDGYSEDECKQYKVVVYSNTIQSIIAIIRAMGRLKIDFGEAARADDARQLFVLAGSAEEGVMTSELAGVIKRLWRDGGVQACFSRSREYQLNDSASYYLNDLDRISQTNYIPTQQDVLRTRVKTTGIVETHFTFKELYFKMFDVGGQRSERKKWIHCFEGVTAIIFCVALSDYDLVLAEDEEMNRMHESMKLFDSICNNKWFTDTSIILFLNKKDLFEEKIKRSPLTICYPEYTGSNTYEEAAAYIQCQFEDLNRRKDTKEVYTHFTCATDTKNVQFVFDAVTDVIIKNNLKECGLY
Sa growth 42C = S. aureus growth inhibition at 42 and 30 °C, primary screen, LtaS inhibitor project, RN4220, two temperatures; OD600, 20 h, 42 °C; hits give low values; relative growth, % (test concentration not listed); actives 0.53% (n = 170,000); AID 720641, 2013;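 active = growth at 42 °C up to 50% and 20 or more points under that at 30 °C, or under 10% at both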;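 note: 300 nL library stock went into each well; scaled to the means of positive and negative controls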
HCMV UL50-53 inh = inhibitors of HCMV UL50-UL53 interaction, biochemical, HTRF; HCMV UL50-UL53 nuclear egress complex (human cytomegalovirus); normalized percent inhibition; inhibition, % (concentration not given with the values); actives 0.15% (n = 190,000);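 active = both replicates at 50% or more, plus weaker picks with an unusually low signal ratio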;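 note: stock transfer was 100 nL into about 20 µL; 0% = negative control wells and 100% = wells with untagged competitor protein; inactives centre near -12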
Sa growth 42C second temp = also measured in Sa growth 42C; calls as there; relative growth, %; measured here: growth at 30 °C;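 optical density after 20 h as mean of two plates; 100% = untreated growth and lower means inhibition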
Numbers without * were called inactive; · = not tested or not shown; & = joins results of further samples.

SMILES	GIV-Gai inh	Sa growth 42C	Sa growth 42C second temp	HCMV UL50-53 inh
CCCN1C(=O)c2[nH]nc(-c3cccc(OC)c3)c2C1c1ccccn1 (stereo unspecified)	108	95	88	-2
CCOc1ccc(NC(=O)NCCN2CCN(c3cccc(C)c3C)CC2)cc1	105	110	94	0
COc1cc(OC)cc(C(=O)N2CCN(Cc3c[nH]c4ccccc34)CC2)c1	101	·	·	-7
O=C(NC1CCCCC1)c1nc[nH]c1C(=O)N1CCC(O)C1 (stereo unspecified)	104	·	·	-22
O=C(N/N=C/c1ccco1)c1ccccc1	106	106	82	-57
Cc1cc(C)nc(NC(c2ccccc2Cl)c2cc(C)sc2NC(=O)c2ccccc2)n1 (stereo unspecified)	100	·	·	8
c1ccc(-c2nc3ccccc3c3nnc(SCc4cn5ccccc5n4)n23)cc1	102	·	·	-30
O=C(COc1ccccc1)Nc1nnc(SCc2cc(=O)n3cc(Cl)ccc3n2)s1	104	88	90	·
COC(=O)CSc1nc2sc3c(c2c(=O)n1-c1ccc(OC)cc1)CC(C)(C)OC3	110	·	·	3
Cc1ccc(C(=O)Nc2sc3c(c2C(=O)N(C)C)CCCCC3)cc1	·	96	108	-16
C=CCN1C(=O)C(Cc2ccc(SC(F)F)cc2)SC1=Nc1ccc(C(=O)O)cc1 (stereo unspecified)	99	·	·	-7
COc1ccc(C2=NN(S(=O)(=O)c3ccc(C)cc3)C(c3ccccc3OC)C2)cc1OC (stereo unspecified)	107	·	·	-4
Cc1cccc(NC(=O)CSc2nc3n[nH]c(C)c3c(=N)n2-c2cccc(Cl)c2)c1	98	104	81	·
O=C(CSc1ncn[nH]1)NCCOc1ccccc1	99	114	70	-14
COc1cc(OC)cc(-c2cc(NC(C)=O)n[nH]2)c1	111	102	90	-23
CCS(=O)(=O)N1CC(=O)N(c2ccc(Cl)cc2)C(C)(C(=O)NC2CCCCCC2)C1 (stereo unspecified)	107	73	81	·
COC(=O)c1ccccc1NC(=O)/C=C/c1ccc(C)o1	102	78	59	-30
Cc1ccc(S(=O)(=O)N2CCC(C(=O)Nc3ccc(C)c(Cl)c3)CC2)cc1	113	109	107	-10
CCSc1nc2ccccc2c(=O)n1C1CCOC(C)(C)C1 (stereo unspecified)	101	95	87	·
CCCc1nc2ccccc2n1C(C)C(=O)O (stereo unspecified)	105	89	81	-2
CC(=O)Oc1ccc(NC(=O)CC2SC(=Nc3ccccc3)N(c3ccccc3)C2=O)cc1 (stereo unspecified)	104	·	·	-20
COc1ccc(OC)c(S(N)(=O)=O)c1	97	101	100	6
COc1ccc(Cl)cc1NC(=O)CN(C)Cc1nc2ccsc2c(=O)[nH]1	·	95	94	-30
O=C(NCc1ccc2c(c1)OCO2)NC12CC3CC(CC(C3)C1)C2	107	104	101	0
O=C(Nc1ccccc1O)c1ccccn1	102	108	89	-30
COc1ccc(-c2ccc(CCC(=O)O)n2-c2ccc(C(=O)O)cc2)cc1	94	86	86	-16
Clc1ccc(-c2cc(-c3nc(-c4ccccc4)no3)[nH]n2)cc1	103	·	·	-8
CCc1ccc(S(=O)(=O)c2c[nH]c3cc(OC)c(OC)cc3c2=O)cc1	103	95	71	0
Cc1ccccc1Cn1c(=O)n(CCCS(=O)(=O)C2CCCCC2)c(=O)c2ccccc21	101	89	82	·
CCN(CC)CCNC(=O)Cn1ncc2c3ccccc3n(Cc3ccccc3C)c2c1=O	104	122	74	7
CCN(CC)S(=O)(=O)c1ccc(Nc2ccc(OC)cc2OC)nc1	·	86	93	-14
O=C(Cn1c(=O)n(Cc2ccc(F)cc2)c(=O)c2sc3ccccc3c21)NCc1ccccc1Cl	102	100	111	4
CCOC(=O)c1c(C)[nH]c(C)c1S(=O)(=O)NCCN1CCc2ccccc2C1	109	·	·	-27
O=C(CSc1nc2c([nH]c3ccccc32)c(=O)n1-c1ccccc1)Nc1ccccc1C(F)(F)F	102	108	87	·
O=C(O)c1cnc2ccccn2c1=O	103	84	81	-7
Cc1ccc(C(C)C)c(OCC(=O)Nc2noc(-c3ccccc3)n2)c1	99	·	·	15
Cc1cccc(NC(=O)CSc2ncc3c(n2)-c2ccccc2N(Cc2ccc(F)cc2)S3(=O)=O)c1C	111	76	69	·
COc1cccc(NC(=O)NCCc2c(C)nn(C)c2C)c1	108	·	·	-27
COc1ccc(CNc2n[nH]c(-c3ccco3)n2)cc1OC	102	99	94	-2
CCOc1ccc(N/C(N)=N/c2nc(C)cc(C(F)(F)F)n2)cc1	108	97	84	1

Four entries from above, with bars between the fields.
Molecule | GIV-Gai inh | Sa growth 42C | Sa growth 42C second temp | HCMV UL50-53 inh
O=C(CSc1nc2c([nH]c3ccccc32)c(=O)n1-c1ccccc1)Nc1ccccc1C(F)(F)F | 102 | 108 | 87 | ·
O=C(Cn1c(=O)n(Cc2ccc(F)cc2)c(=O)c2sc3ccccc3c21)NCc1ccccc1Cl | 102 | 100 | 111 | 4
Cc1cccc(NC(=O)CSc2ncc3c(n2)-c2ccccc2N(Cc2ccc(F)cc2)S3(=O)=O)c1C | 111 | 76 | 69 | ·
COc1ccc(CNc2n[nH]c(-c3ccco3)n2)cc1OC | 102 | 99 | 94 | -2

(listing goes on)
SMILES	GIV-Gai inh	Sa growth 42C	Sa growth 42C second temp	HCMV UL50-53 inh
Cn1nc(-c2ccccc2F)c2cc(C(=O)NCc3ccc(Cl)cc3)sc21	106	88	86	-8
CCOCCCn1c(=N)c(C(=O)NC(C)c2ccccc2)cc2c(=O)n3cc(C)ccc3nc21 (stereo unspecified)	111	104	88	-114
CCN(CC)C(=O)C1CCCN(C2=NS(=O)(=O)c3ccccc32)C1 (stereo unspecified)	·	98	88	-14
COc1ccccc1N(CCCN1C(=O)c2cccc3cccc(c23)C1=O)C(=O)C(C)(C)C	102	·	·	-14
CC1(C)CC(=O)C(C2C3=C(CC(C)(C)CC3=O)Oc3ccccc32)=C(O)C1 (stereo unspecified)	106	96	105	10
COc1ccc(NC(=O)c2csc3c2CCCCC3)cc1	98	93	93	-8
COc1ccc(-c2noc(CC(=O)Nc3ccc(F)cc3F)n2)cc1	104	125	88	·
CC(C)(C(N)=O)/[N+]([O-])=C\c1ccccc1	102	87	91	-23
CNC(=O)c1cc2c(=O)n3cccc(C)c3nc2n1C	102	107	88	·
Cc1cccc(CCNC(=O)CCc2c(C)nc3c(c(C)nn3-c3ccccc3)c2C)c1	98	111	86	-10
c1ccc(CN2CN(Cc3ccccc3)c3nc4ccccc4n3C2)cc1	100	93	93	·
COc1ccccc1CNC(=O)c1n[nH]nc1Nc1cccc(Cl)c1	120	·	·	-7
O=C(COC(=O)c1ccc(S(=O)(=O)N2CCCCC2)cc1)NC1CCCCC1	·	89	91	-24
COc1ccc(CNC(=O)Cn2cccc2C(=O)c2ccccc2C)cc1	104	96	84	-19
Cc1cc(C)c2c(-n3cccc3)c(C(=O)NC3=NCCS3)sc2n1	·	167	88	-70
Cc1ccc2[nH]c3c(=O)n(CC(=O)N4CCCCC4)ncc3c2c1	107	83	91	·
CCc1c(C)nc2nc(Cc3cccc(F)c3)nn2c1NCc1ccc2c(c1)OCO2	105	·	·	-10
O=C(COC(=O)C1CC(=O)N(Cc2ccccc2)C1)Nc1ccc2c(c1)OCO2 (stereo unspecified)	·	94	87	-2
CCSc1ncc2c(=O)n(CC(=O)N(C)C3CCCCC3)cnc2n1	109	·	·	-22
O=C(NCCC1=CCCCC1)c1ccc2c(c1)N(Cc1ccccc1F)C(=O)c1ccccc1S2(=O)=O	97	103	98	-14
CCOC(=O)N1CCN(C(=O)c2c(C)nn(-c3cccc(C)c3)c2-n2cccc2)CC1	103	81	89	·
CC(C)C(NS(=O)(=O)c1cccs1)C(=O)NCc1ccccc1F (stereo unspecified)	102	100	104	5
O=C1CCCC2=C1C(c1ccc(OCc3ccc(C(=O)O)cc3)cc1)C1=C(CCCC1=O)O2	102	76	87	0
c1ccc(-c2nc3c([nH]2)CCc2nonc2-3)cc1	92&99	90	77	-17&-33
Cc1cc(=O)c2cc(Cl)ccc2s1	105	92	94	-22
Cc1nc2c(cc(OCc3c(C)noc3C)c3ccsc32)s1	·	106	96	-30
CC1=C(C(=O)Nc2cc(Cl)ccc2C(=O)NCc2ccc(OC(C)C)cc2)SCCO1	97	93	93	·
CCN(Cc1ccccc1)C(=O)C1CCN(Cc2ccc(SC)cc2)CC1	·	126	89	-1
COc1ccc(Cn2c(CCC(=O)Nc3ccc(C)cc3)nc3cccnc32)cc1	103	95	98	8
CC1(N)CCS(=O)(=O)C1 (stereo unspecified)	101	103	92	-14
CCCc1cc(=O)c2ccc(OC/C(C)=N/O)cc2o1	100	92	79	-10
CN(C)c1cc(NC(=O)Nc2ccccc2)c2ccccc2n1	107	0.0*	0.0*	-30
CNC(=O)Nc1ccc(Cl)cc1	·	73	74	-35
Nn1c(Nc2ccccc2)nc2sc3c(c2c1=O)CCCC3	113	105	81	-22
Cc1noc(C)c1CSc1ccccc1C(=O)NC(C)c1ccc(-n2ccnc2)cc1 (stereo unspecified)	·	61	60	-23
CN1CCN(C(=O)c2ccc(-c3ccccc3)cc2)CC1	104	126	105	-14
COc1ccccc1CNC(=O)CSc1ccccc1	·	104	90	-19
O=C(CSc1nc(=O)[nH]c2c1CCCC2)Nc1ccccc1C(F)(F)F	102	112	96	·
CCOC(=O)c1oc2ccccc2c1N=Cc1c(O)[nH]c(=O)[nH]c1=O	·	96	92	-25
CC(C)(C)c1ccc(OCCOc2ccccc2C=C2C(=O)NC(=S)NC2=O)cc1	95	·	·	-20

Part of the list above, set out differently.
CCCc1cc(=O)c2ccc(OC/C(C)=N/O)cc2o1
  GIV-Gai inh: 100 | Sa growth 42C: 92 | Sa growth 42C second temp: 79 | HCMV UL50-53 inh: -10
CN(C)c1cc(NC(=O)Nc2ccccc2)c2ccccc2n1
  GIV-Gai inh: 107 | Sa growth 42C: 0.0* | Sa growth 42C second temp: 0.0* | HCMV UL50-53 inh: -30
CN1CCN(C(=O)c2ccc(-c3ccccc3)cc2)CC1
  GIV-Gai inh: 104 | Sa growth 42C: 126 | Sa growth 42C second temp: 105 | HCMV UL50-53 inh: -14
CNC(=O)Nc1ccc(Cl)cc1
  GIV-Gai inh: · | Sa growth 42C: 73 | Sa growth 42C second temp: 74 | HCMV UL50-53 inh: -35

Going on with the list.
SMILES	GIV-Gai inh	Sa growth 42C	Sa growth 42C second temp	HCMV UL50-53 inh
CC(C)n1cn[nH]c1=S	·	83	88	-5
Cc1nn(-c2ccc3nncn3n2)c2c1C(c1cc(F)cc(F)c1)CC(=O)N2 (stereo unspecified)	102	·	·	-34
Cc1oc(-c2ccc(C(=O)NCc3ccccc3)cc2)nc1CS(=O)(=O)c1ccccc1	107	147	89	·
Cc1cc(C)cc(OC(=O)c2ccc(Oc3cc(Cl)cc(Cl)c3)o2)c1	97	94	81	-27
CCc1nc(N2CCC(C)CC2)c(C#N)c2c1COC(C)(C)C2	106	85	70	-20
O=C1CC(C(=O)Nc2ccccc2)N=C(N2CCc3ccccc3C2)N1 (stereo unspecified)	81*	104	95	1
O=C(Cn1[nH]c(=O)ccc1=O)OCc1ncc(-c2cccc(Cl)c2)o1	·	96	93	-18
Cc1ccc(NC(=O)CCc2c(C)nc3ncnn3c2C)cc1Cl	104	99	96	-39
CCN(CC)CCNC(=O)c1[nH]c2ccccc2c1Sc1ccc(Cl)cc1	99	112	94	-24
COC(=O)CCc1nc2ccccc2[nH]1	99	100	89	-20
CC(=O)N1N=C(c2ccc3c(c2)OCO3)OC1c1cccc(Br)c1 (stereo unspecified)	105	·	·	-19
O=C(NC(=O)c1ccccc1O)c1cccs1	96	131	75	-20
COc1ccc(CN2CC(=O)N(c3ccc(C(C)(C)C)cc3)[C@@H]3CS(=O)(=O)C[C@@H]32)cc1	100	·	·	-22
CCC(=O)Nc1ccc(C(=O)CN2C(=O)C3CC=CCC3C2=O)cc1 (stereo unspecified)	·	108	92	-43
Cc1sc(-n2cccc2)c(C(=O)NC(C)CCc2ccccc2)c1C (stereo unspecified)	106	100	88	·
O=C(O)CC1SC(c2cccc(-n3cccc3)c2)=NC1=O (stereo unspecified)	108	94	64	-1
Cc1nc(S(=O)(=O)Nc2cccc(Cl)c2)cn1C	105	·	·	-13
S=C(c1cccs1)N1CCCC1	·	91	95	2
CC12CC3(C)CC(C)(C1)CC(CN=Cc1ccc(O)cc1)(C2)C3	93	69	91	·
Cc1cc(C)c(C)c(OCC(=O)Nc2ccc(S(=O)(=O)Nc3nc(C)cc(C)n3)cc2)c1	102	87	79	-36
Cc1nn(-c2cc(N3CCCC3)ncn2)c(C)c1CCC(=O)NC1CCCCC1	101	·	·	-5
CC(C)COC(=O)C(C)Oc1ccc2c(=O)c(-c3ccccc3)coc2c1 (stereo unspecified)	99	98	77	·
CCc1ccc(Nc2c3c(nc4ccccc24)CCCC3)cc1	100	79	40	·
CCn1cc2nc(SCC(=O)N3CCCC3)n(Cc3ccc(C)cc3)c(=O)c2n1	107	104	61	-29
COC(=O)c1ccc(NC(=O)CSc2nnc(Cn3c(=O)sc4ccccc43)n2C)cc1	103	98	85	-40
O=C(CCCn1c(=O)c2cccn2c2ccccc21)NCc1ccccc1	101	70	63	-6
Brc1ccc2nc(-c3ccccc3)c(Nc3ccc4c(c3)OCO4)n2c1	105	99	92	-11
C/C(=N\Nc1nnc(C)c(=O)[nH]1)C(=O)O	106	86	90	-19
